Screening data from PubChem BioAssay.
eIF4H inh: inhibitors of RNA binding by human eIF4H. 290,000 compounds, 0.94% hits. eIF4H fluorescence polarization binding assay. inhibition, % at 35 µM. Q15056;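 active = 50% or more with normal probe brightness, or confirmed in later tests; about a fifth of its hits are not listed in these tables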;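 note: calls also rest on retests at 20 µM and on dose response follow-up; 0% = protein and probe with vehicle and 100% = probe without protein; strong numbers were not always called active; many hits fall short of the cut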
CSC inhib: blocks cancer stem cells. AID 2717. 300,000 compounds, 1.1% hits. cancer stem cell-like cells viability, luminescence. inhibition, % at 7.5 µM;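 active = mean at 75% or more and at least half the replicates too; tested in HMLE shEcad cells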;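 note: 0% = median of negative and 100% = median of positive control wells; the first replicate is given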
Rce1 inh: blocks yeast Ras-converting enzyme | yeast membranes, quenched prenylated peptide cleavage fluorescence | calls only | 290,000 compounds, 0.27% hits;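 active = fall in fluorescence gain of 50% or more versus controls, with final raw signal at or below 3038400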;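 note: plate controls were neutral control wells for no effect and wells lacking membranes for full effect; tested at 10 µM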
Target sequence (Q03530 whole entry, looked up): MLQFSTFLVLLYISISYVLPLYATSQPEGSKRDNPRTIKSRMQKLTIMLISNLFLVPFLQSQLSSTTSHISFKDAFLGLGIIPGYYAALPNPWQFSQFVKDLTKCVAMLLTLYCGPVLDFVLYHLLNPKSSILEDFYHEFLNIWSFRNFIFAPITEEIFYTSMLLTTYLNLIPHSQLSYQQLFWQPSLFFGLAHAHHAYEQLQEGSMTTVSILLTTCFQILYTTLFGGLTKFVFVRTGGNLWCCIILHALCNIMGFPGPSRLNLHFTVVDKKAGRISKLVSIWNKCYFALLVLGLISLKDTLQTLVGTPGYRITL
MT1-MMP act inh: MT1-MMP (human) activation inhibition. HT1080 RFP-PRO-GFP cells, GFP/RFP ratio fluorescence, overnight; percent of plate control window, DMSO zero. GFP/RFP ratio change, % at 20 µM. 360,000 compounds, 0.061% hits. AID 651647;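 active = GFP/RFP ratio change of at least 30% with cell ATP level not reduced by more than half and red fluorescence within 50% of control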; note: strong numbers were not always called active
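Assay system: RFP-PRO-GFP reporter HT1080 cells; read-out basis: GFP/RFP fluorescence ratio; benchmarks: DMSO wells and RFP-L50D-GFP cells; doses: 20 µM single dose, 1% DMSO; schedule: overnight cell settling, then overnight compound exposure, 37 °C, 5% CO2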
Yeast UUG start: alters start codon recognition fidelity in yeast | S. cerevisiae UUG-firefly luciferase reporter, luminescence/redox ratio | activity score, % at 18.7 µM | 350,000 compounds, 0.13% hits;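 active = replicate mean at a twofold rise or more, about +100% in these data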;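 note: firefly luciferase made from a UUG start codon reports start codon fidelity; reporter light over untreated wells divided by growth signal over untreated wells; some hits fall short of that in this replicate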
PABP polyA inh: blocks human PABP binding to poly(A) RNA; inhibition, % at 35 µM; fluorescence polarization; AID 2014; P11940; 290,000 compounds, 1% hits;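 active = 50% or more with normal probe brightness, or confirmed in later tests; about a fifth of its hits are not listed in these tables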;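 note: calls also rest on retests at 20 µM and on dose response follow-up; controls were probe without protein and protein plus probe with vehicle; some compounds called inactive have numbers as strong as hits; many hits fall short of the cut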
HIV Env fusion: HIV envelope-mediated fusion inhibition; HeLa-JRFL Env/CEM21 cell fusion, luciferase; inhibition, % at 12.3 µM; 360,000 compounds, 1.1% hits;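 active = mean replicate inhibition score of at least 50 and every replicate individually at or above 50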;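 note: 0% = plate neutral controls and 100% = maraviroc near 300 nM; one replicate is shown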
eIF4H inh retest: recorded beside eIF4H inh, whose call it bears; inhibition, %; compound at 20 µM; confirmation average;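 mean of two retest wells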
PABP polyA inh retest: also measured in PABP polyA inh; calls as there; inhibition, %; compound at 20 µM; confirmation repeats;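 mean of two retest wells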
MT1-MMP act inh RFP: recorded beside MT1-MMP act inh, whose call it bears; RFP signal change, %; measured here: RFP expression control read;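 0 = vehicle wells; hits needed this value within 50% of zero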
* marks the source's active call; other numbers are inactive results; i = inactive; / = no result given.

SMILES	eIF4H inh	CSC inhib	Rce1 inh	MT1-MMP act inh	MT1-MMP act inh RFP	Yeast UUG start	PABP polyA inh	HIV Env fusion	others
COc1ccccc1NC(=O)Cn1nnc(-c2ccccc2NC(=O)c2cnccn2)n1	-13.3	-8.7	i	4.4	3.5	/	5.3	2.7
Cc1ccc(S(=O)(=O)N/N=C\c2ccc(C)o2)cc1	38.0	-4.8	i	-5.8	1.5	/	1.3	/
O=C(c1cccs1)c1sccc1Cc1ccccc1	/	/	/	-0.9	-4.5	-18.6	/	-16.8
O=C1NC(c2cccc(Cl)c2)Nc2ccccc21 (stereo not given)	-8.5	23.0	/	-1.1	-3.3	/	-16.8	-87.9
Cc1sc(NC(=O)CSc2nc(N)cc(N)n2)c(C#N)c1C	10.3	-3.5	i	4.9	-7.0	/	4.6	17.1
CCOCCCNC(=O)c1cn(CC)c2ccc(S(=O)(=O)N3CCC(C)CC3)cc2c1=O	-9.3	-17.0	i	-3.7	-1.1	6.0	-2.5	7.1
CN1CCc2c(sc(/N=C/c3ccco3)c2C(N)=O)C1	67.6*	-11.2	i	-23.6	5.7	-7.6	56.7*	-35.0
O=C(Nc1cc2c(cc1Br)OCCO2)c1cccnc1	-10.4	5.8	/	-1.2	5.2	-11.2	-10.6	-17.7
CC(=O)Nc1ccc(NC(=O)C(C)OC(=O)c2cccc(S(=O)(=O)N3CCCCC3)c2)cc1 (stereo not given)	-8.8	-8.4	i	1.3	-4.5	0.2	-8.0	-17.1
O=C(O)c1ccccc1C(=O)Nc1ccc(Nc2ccc([N+](=O)[O-])cc2[N+](=O)[O-])cc1	-13.5	-11.2	i	4.4	-0.3	0.9	4.4	16.3
COC(=O)c1ccccc1-c1ccc(/C=N/Nc2nc(N3CCCC3)nc(N3CCCC3)n2)o1	0.4	8.2	i	3.3	-0.6	-2.4	7.2	20.3
Cc1ccc(S(=O)(=O)NCc2ccccc2)cc1C(=O)NC1CCCCC1	-1.4	3.8	i	-2.3	-5.3	-13.0	3.1	8.5
Cc1c(C(=O)N2CCOCC2)c(S(=O)(=O)Nc2ccccc2F)c(C)n1C	-1.1	-1.0	i	1.6	1.3	-11.1	-4.2	-9.4
Cc1cccc(OCCn2c(=O)oc3ccc(C)cc32)c1	8.2	5.8	i	3.2	-0.4	-0.4	-8.3	1.3
CCn1c(CNC(=O)c2ccco2)nnc1SCC(=O)c1ccc(OC)cc1	72.4	11.2	i	1.5	-3.1	/	25.7	10.1	eIF4H inh retest=45.6;PABP polyA inh retest=35.4
O=C(c1cc(-c2ccccc2)on1)N(Cc1cccnc1)C(c1ccccn1)c1nc2ccccc2[nH]1 (stereo not given)	/	/	/	0.2	5.6	-21.1	/	-4.1
CCN(CC)CCNC(=O)c1cn(C)c2ccc(S(=O)(=O)N(C)C3CCCCC3)cc2c1=O	1.3	-11.0	i	2.6	2.7	-5.9	3.1	4.6
O=S(=O)(c1cccs1)N1CN(C2CCCCC2)c2nc3ccccc3nc21	-9.5	6.5	i	-0.2	-0.5	6.8	4.3	-92.6
CCCCn1c(N)c(N(CCC(C)C)C(=O)c2ccc(C)o2)c(=O)[nH]c1=O	/	-2.3	/	0.4	0.5	-13.5	/	-4.2
CC(C)c1csc(CN2CCC(N3CCC(C(=O)N4CCOCC4)CC3)CC2)n1	-10.5	3.5	i	0.3	5.1	7.4	-14.8	-4.2
COc1ccc(CN(C(=O)Cn2nnc3ccccc32)C(C(=O)NC(C)(C)C)c2ccco2)cc1 (stereo not given)	-1.5	/	i	-1.8	-0.6	-21.2	-6.8	15.8
O=C(CCN=C1NS(=O)(=O)c2ccccc21)Nc1ccc(F)cc1Cl	/	-2.9	/	-1.2	-0.4	-9.3	/	/
CCC(C)(C)C1CCC2(CC1)NC(=O)N(CC(=O)NCCCc1ccccc1)C2=O (stereo not given)	/	14.3	/	-3.1	-5.7	-7.6	/	-3.6
O=C(CN1CC[n+]2c(-c3cccs3)csc21)c1ccc(-c2ccccc2)cc1	0.4	1.5	i	-17.5	-22.9	/	-27.0	3.7
O=C(CC(=O)Nc1cccc(Cl)c1Cl)Nc1cccc(Cl)c1Cl	-4.7	7.9	i	1.1	4.6	-13.5	-4.0	-7.9
O=C(N=Nc1c(O)[nH]c2ccccc12)c1cc(-c2ccc(F)cc2)n[nH]1	42.2	-15.2	i	1.5	2.8	/	4.2	-0.5
COc1ccc(C)cc1NC(=O)Nc1ccc(Br)cn1	4.2	-7.3	i	3.6	6.1	-14.4	3.8	-71.5
CCC(=O)N1CCCC(C)(C(=O)NS(=O)(=O)c2cccs2)C1 (stereo not given)	/	/	/	4.0	4.8	28.5	/	-28.1
Cc1ccc(S(=O)(=O)c2ccc(Oc3ccccc3)cc2)cc1	0.7	-2.5	i	0.2	-5.6	7.4	-5.0	16.8
Fc1ccccc1-c1csc(-c2cccnc2)n1	-6.1	-6.3	/	/	/	-8.3	1.4	-44.7
N#Cc1nc(COc2ccccc2)oc1N1CCCCC1	-2.6	-5.1	i	-0.9	-4.2	-10.9	11.2	-5.3
N#C/C(=C\c1cccc(OC(=O)c2cccs2)c1)C(N)=O	-3.0	12.3	i	-5.2	-4.5	/	6.3	/
CCCCNC(=O)c1cccnc1SCC(=O)Nc1ccccc1OC	-10.0	-16.5	i	8.1	1.4	24.6	2.1	-40.5
O=c1c2ccccc2c(C=NCCCN2CCOCC2)c(O)n1Cc1ccccc1	-9.0	57.1	i	-1.6	-2.6	-7.0	-5.7	/
Cc1ccc(C2C(C#N)C(C#N)N3CCCN23)cc1 (stereo not given)	-10.5	-11.4	i	2.2	1.4	-12.2	-2.5	-28.4
CSCc1ccc(C(=O)OCc2nc3ccccc3s2)o1	/	-8.5	/	-1.2	1.8	-0.7	/	/
O=C(CCN1C(=O)C2CCCCC2C1=O)Nc1ccc(F)c(F)c1F (stereo not given)	-6.0	-5.2	i	2.6	0.5	-13.5	6.5	14.9
C=CCc1cccc2cc(C(=O)NC3=C(C#N)CCC3)c(=O)oc12	-4.8	9.6	i	1.6	7.1	-8.5	-9.4	/
Cc1cccc(NS(=O)(=O)c2cccc(C(=O)NCC(C)(C)N3CCOCC3)c2)c1	-1.4	13.4	i	2.8	-0.9	-8.7	-0.7	16.5
O=C1N/C(=N\N=C\c2ccco2)SC1Cc1ccccc1[N+](=O)[O-] (stereo not given)	-0.8	-7.0	i	-13.5	-0.7	/	8.5	-29.0

Some of these compounds in order of length of the SMILES, falling.
SMILES	eIF4H inh	CSC inhib	Rce1 inh	MT1-MMP act inh	MT1-MMP act inh RFP	Yeast UUG start	PABP polyA inh	HIV Env fusion	others
O=C1N/C(=N\N=C\c2ccco2)SC1Cc1ccccc1[N+](=O)[O-] (stereo not given)	-0.8	-7.0	i	-13.5	-0.7	/	8.5	-29.0
N#C/C(=C\c1cccc(OC(=O)c2cccs2)c1)C(N)=O	-3.0	12.3	i	-5.2	-4.5	/	6.3	/
COc1ccc(C)cc1NC(=O)Nc1ccc(Br)cn1	4.2	-7.3	i	3.6	6.1	-14.4	3.8	-71.5
N#Cc1nc(COc2ccccc2)oc1N1CCCCC1	-2.6	-5.1	i	-0.9	-4.2	-10.9	11.2	-5.3

The listing continues.
SMILES	eIF4H inh	CSC inhib	Rce1 inh	MT1-MMP act inh	MT1-MMP act inh RFP	Yeast UUG start	PABP polyA inh	HIV Env fusion	others
Cc1ccc(C)c(CN2CCC(CNC(=O)Nc3ccc(C)c(C)c3)CC2)c1	-3.2	-3.1	i	3.7	-4.2	1.6	-15.3	9.5
[N-]=[N+]=NC[C@H](c1ccccc1)N1CCN(Cc2ccccc2)CCC1=O	-0.3	-23.5	i	-1.8	-1.1	-23.5	-13.1	-10.2
CCC(C)(NC=O)C(=O)Nc1c(C)cccc1C (stereo not given)	-11.9	-11.5	i	1.2	-2.2	/	-7.4	5.0
Cn1c(=O)n(CCOc2ccc(Cl)cc2Cl)c2ccccc21	5.1	12.6	i	-7.4	-4.3	-8.9	-1.3	/
Cc1ccc(Oc2ccc(/C=N/O)cn2)cc1	-5.1	-2.7	i	-2.4	-3.2	-24.5	-15.0	/
O=C(Nc1ccc(S(=O)(=O)NCC2CCCO2)cc1)c1cnccn1 (stereo not given)	-8.1	/	i	12.3	0.5	-11.9	-5.8	1.8
O=C(Cc1cccs1)NCc1ccc(Cl)cc1	-2.8	-2.4	i	-1.5	2.3	-11.4	1.2	12.1
Cc1noc(C)c1CSCC(=O)Nc1cc(S(C)(=O)=O)ccc1Cl	/	-13.6	i	0.5	3.4	-16.0	/	-7.7
CNC(=O)Cn1nc(-c2ccc(C)cc2)c2ccccc2c1=O	-7.5	2.9	/	-0.4	3.6	-14.1	11.9	-4.3
COc1ccc(N2C(=O)C3CCCN3C2c2cc(OC)c(OC)c(OC)c2)cc1 (stereo not given)	-6.6	18.1	i	3.0	3.2	-3.9	-3.7	-12.5
COc1ccc2c(c1)c(CCNNC(=O)C(C)(C)C)c(C)n2C(=O)c1ccc(Cl)cc1	/	/	i	-0.2	-5.5	-14.9	/	5.1
Cc1ccnc(NC(=O)c2ccc3[nH]c(=O)c(=O)[nH]c3c2)c1	0.0	-5.6	i	0.6	1.3	-5.0	2.3	3.5
O=C(COC(=O)c1cccc([N+](=O)[O-])c1)c1ccc(OCc2ccccc2)cc1	1.2	2.7	i	1.2	-1.4	/	8.5	-4.6
COc1ccc(-c2ccc(NCCN3CCOCC3)nn2)cc1OC	-4.0	-6.6	i	1.4	3.9	7.0	-1.5	-2.0
NC(c1csc(Nc2ccccn2)n1)C1CCCCC1 (stereo not given)	/	/	/	-5.7	-0.3	-22.0	/	13.7
CC(=O)NCCNC(=O)c1cc(-c2cccc3ccccc23)nc2ccccc12	0.8	-4.2	i	-0.2	-0.6	-9.2	0.4	10.3
COCCSc1ccccc1C(=O)Nc1cc([N+](=O)[O-])ccc1OC	-0.6	/	i	0.4	3.5	/	-0.2	8.9
COc1cccc(NC(=O)CCN2C(=O)c3ccc([N+](=O)[O-])cc3C2=O)c1	-6.0	-5.1	i	4.6	5.5	/	-13.1	-24.0
CCOc1ccc(Oc2ccc(NC(=O)[C@@H](NC(N)=O)[C@@H](C)CC)cc2)cc1	-1.7	0.3	i	2.1	-2.8	-13.6	-3.5	1.2
CC(NC(=O)C(NC(=O)C(Cc1c[nH]c2ccccc12)NC(=O)OC(C)(C)C)C(C)C)C(N)=O (stereo not given)	4.7	16.0	i	-1.8	0.9	10.0	-3.2	-3.8
CCN(CC)S(=O)(=O)c1ccc(NC(=O)CSc2nc3nc(C)cc(C)c3c(=O)[nH]2)cc1	/	/	/	-0.4	0.3	-13.1	/	-12.1
COc1ccc(NC(=O)COc2ccccc2)cc1Cl	-6.6	-0.7	i	1.7	-0.9	-17.1	3.1	-16.1
COc1cccc(/C(O)=C/c2nc3ccc(C(=O)NCCc4ccc(Cl)cc4)cc3[nH]c2=O)c1	-8.7	/	i	-81.5	-8.0	/	-15.1	-11.2
COc1ccccc1C(=O)NCC(=O)N=Nc1c(O)n(C(C)C)c2ccccc12	-8.5	-0.9	i	3.7	6.2	-4.4	4.4	3.3
COc1cccc(CNC(=O)c2cccc(Br)c2)c1	-1.2	2.9	i	-2.2	-0.9	/	3.5	/
CCn1c(=S)[nH]c2cc(S(=O)(=O)N3CCOCC3)ccc21	/	-10.7	/	2.0	2.8	-17.8	/	-10.8
O=C(Nc1nccs1)c1ccc(S(=O)(=O)N2CCOCC2)cc1	0.2	-12.5	i	1.4	1.3	/	-9.3	15.6
CCOC(=O)Nc1ccc(C(N)=O)cc1	-9.7	-4.4	i	4.4	0.0	-20.4	13.7	2.1
O=C(CN1C(=O)CC(c2ccccc2)S(=O)(=O)c2ccccc21)N1CCCCC1 (stereo not given)	-4.0	10.4	i	0.9	3.0	/	-1.2	-0.8

Only part of the results is shown, so the mix of outcomes need not match the whole.
